TRPV1 potentiator: enhances activation of the human vanilloid receptor TRPV1 | Q8NER1 | TRPV1-expressing cells, Fluo-8 calcium influx, capsaicin EC20 potentiation; host cell line not named in the record; control for the full effect not named in the record | potentiation, % at 8.33 µM | hit rate 0.02% among 320,000 | AID 540277; active means potentiation above 80%; inconclusive means 30% to 80%; inactive means below 30%; also: 0% is about no effect
Target sequence (Q8NER1 whole entry, looked up): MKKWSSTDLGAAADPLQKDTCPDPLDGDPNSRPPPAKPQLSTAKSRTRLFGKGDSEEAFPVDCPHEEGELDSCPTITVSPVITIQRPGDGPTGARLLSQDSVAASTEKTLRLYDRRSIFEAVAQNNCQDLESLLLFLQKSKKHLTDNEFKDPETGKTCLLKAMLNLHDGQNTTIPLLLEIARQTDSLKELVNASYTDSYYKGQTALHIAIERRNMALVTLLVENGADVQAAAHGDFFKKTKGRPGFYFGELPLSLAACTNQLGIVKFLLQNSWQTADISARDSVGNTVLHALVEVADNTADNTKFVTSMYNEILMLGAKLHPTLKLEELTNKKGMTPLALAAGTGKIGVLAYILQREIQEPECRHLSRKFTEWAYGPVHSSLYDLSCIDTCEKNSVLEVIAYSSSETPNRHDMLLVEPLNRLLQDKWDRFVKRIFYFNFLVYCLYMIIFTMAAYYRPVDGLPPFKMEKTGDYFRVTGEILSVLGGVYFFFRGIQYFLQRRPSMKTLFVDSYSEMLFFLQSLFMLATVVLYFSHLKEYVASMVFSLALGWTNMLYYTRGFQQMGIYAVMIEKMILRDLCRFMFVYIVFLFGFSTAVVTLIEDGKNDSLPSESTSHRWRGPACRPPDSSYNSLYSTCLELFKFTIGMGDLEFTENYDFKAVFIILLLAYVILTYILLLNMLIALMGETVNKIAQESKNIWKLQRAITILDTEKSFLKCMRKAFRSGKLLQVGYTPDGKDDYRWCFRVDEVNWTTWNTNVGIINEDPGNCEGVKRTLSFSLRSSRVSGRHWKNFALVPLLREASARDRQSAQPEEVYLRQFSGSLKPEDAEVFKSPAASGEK
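TRPV1-expressing cells were cultured overnight at 35.5C and loaded with Fluo-8 calcium dye for 40 to 90 min at room temperature. After a 10 s baseline, compound was added and calcium influx was read kinetically for 3 min (ex 480/em 520 nm).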
ClpP mod: qHTS Assay for Activators of ClpP | purified B. subtilis ClpP, FRET peptide cleavage, 20 min | AID 651965, 2013 | Potency, µM (top dose mostly 57.5 µM), for the others: at the highest dose activity change, negative = active | ATP-dependent Clp protease proteolytic subunit (Bacillus subtilis (strain 168)), P80244 | hit rate 1.9% among 340,000; active = well fitted falling curve with a large enough effect; inconclusive = small, poorly fitted or top-dose-only effect; inactive = no such curve, though single readings can be large or run the other way; also: potency is read from the fitted curve at half-maximal effect; the source files actives as falling curves though it sought activators and does not explain the sign; nearly all actives have a fitted effect of over 65% in size; many hits overshoot -100%
Target sequence (P80244 whole entry, looked up): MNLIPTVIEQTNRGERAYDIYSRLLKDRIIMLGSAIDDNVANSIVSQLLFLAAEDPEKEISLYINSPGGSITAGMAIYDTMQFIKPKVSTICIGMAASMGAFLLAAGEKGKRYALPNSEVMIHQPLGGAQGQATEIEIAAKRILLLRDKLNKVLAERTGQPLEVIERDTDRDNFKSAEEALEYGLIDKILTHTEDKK
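FRET quenching reversal measured ClpP activation: 10 microg/mL B. subtilis ClpP at pH 8 with the FRET-FV decapeptide, read at 430 nm after 320 nm excitation. The 20-min minus 0-min signal was scaled between DMSO/no-enzyme wells and ADEP (5.8 microM final).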
D2 PAM: potentiates the human D2 dopamine receptor allosterically; hit rate 0.23% among 360,000; P14416; AID 624464; DiscoveRx D2 beta-arrestin cells, luminescence, 90 min; 100% = 57 uM dopamine signal; potentiation, % (concentration not given with the values); active = potentiation of 50% or more; inconclusive = 30% to 50%; inactive = 30% or less;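 also: compound concentration not given in the record; tested on top of an EC20 dose of dopamine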
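PathHunter D2 cells, attached overnight at 37 deg C, received compound in DMSO plus dopamine at EC20 (50 nM final) for 90 min at 37 deg C. Beta-arrestin recruitment was read as luminescence after 1 h with detection reagent at ambient temperature.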
gsp agonist: activates gsp, the McCune-Albright syndrome mutation | Potency, µM (titrated, usually from 76.9 µM), for the others: at the top dose activation (cAMP increase), actives largely listed as activators | gsp mutant cells, cAMP HTRF, 30 min; control for the full effect not named in the record | hit rate 0.13% among 340,000; active = well fitted activation curve with a large enough effect; inconclusive = small, poorly fitted or top-dose-only effect, or another doubt; inactive = no such curve, though single readings can be large or run the other way; cell line not stated here;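 also: phosphodiesterase inhibitor Ro 20-1724 added with compounds to block cAMP breakdown; potency is read from the fitted curve at half-maximal effect; nearly all actives have a fitted effect of over 60% in size; about a fifth of the inactives were tested at one dose only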
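Cells in DMEM/10% FBS with G418 were pretreated with compounds in DMSO plus […] (300 uM stock) for 30 min at 37C. cAMP was measured by HTRF (cAMP-d2 plus anti-cAMP antibody-K) after 30 min at room temperature.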
Sfp inh: blocks B. subtilis Sfp PPTase activity; Q9F4F7; Biochemical Sfp PPTase activity, qHTS; Potency, µM, inactives show max response, negative = inhibition, actives largely listed as inhibitors; hit rate 3.5% among 310,000; AID 1490; active = well fitted inhibition curve with a large enough effect; inconclusive = small, poorly fitted or top-dose-only effect, or another doubt; inactive = no such curve, though single readings can be large or run the other way;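 also: the enzyme is Sfp with the accession as filed and its product quenches rhodamine fluorescence; potency is read from the fitted curve at half-maximal effect; 0% = enzyme reaction without inhibitor and -100% = no enzyme wells; top concentration of the series not given in the record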
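Step 1, compound plus 15 nM Sfp-PPTase, 15 min, room temperature. Step 2, add rhodamine-CoA (5 uM) and BHQ-2-YbbR (12.5 uM). Step 3, read 525/598 nm fluorescence at 0 and 30 min.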
Menin-MLL FL inh: inhibitors of human menin-MLL interaction, wild-type MLL peptide. Fluorescence polarization, fluorescein-MLL peptide displacement from menin. FP activity change, % at 61.4 µM. 290,000 tested, under 10 active. AID 1766; inconclusive = falling polarisation curve, or a change in total fluorescence; inactive = total fluorescence flat and polarisation flat or rising; no compound was filed as active; the % refers to the polarisation; negative = inhibition;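 also: % of control where 0% means no effect; inhibitors lower the polarisation; unlabelled MLL peptide was the positive control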
gsp antag: gsp mutant antagonism; gsp-mutant cells, cAMP HTRF, 30 min; control for the full effect not named in the record; Potency, µM (doses to about 76.9 µM), inactives show at the highest dose activity change, negative = inhibition, actives largely listed as inhibitors; hit rate 0.4% among 340,000; AID 624288; active = falling curve of any shape with a large fitted effect; inconclusive = falling curve, mostly with a smaller effect; inactive = flat or rising curve; cell line not stated here;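 also: intracellular cAMP measured with PDE inhibitor Ro 20-1724 present during compound exposure; potency is read from the fitted curve at half-maximal effect; % is scaled to controls: 0 for no effect and ±100 for the full control effect; nearly all actives have a fitted effect of over 65% in size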
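Cells in G418 medium, seeded 16-24 h, 37C; buffer exchange to DPBS + 1 mM CaCl2, 0.5 mM MgCl2, 0.05% BSA; cpds in DMSO + […] (300 uM stock), 30 min 37C; HTRF cAMP detection.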
* = called active by the depositor; ? = inconclusive; . = no result given; [ ] = another dose, or the depositor's remark.

Compound	TRPV1 potentiator	ClpP mod	D2 PAM	gsp agonist	Sfp inh	Menin-MLL FL inh	gsp antag
Cc1ccc(-c2noc(N=O)c2NO)cc1	8	.	11	-6%[15.4 µM]	19%	-0.4	-14%
COc1cccc2sc(NC(=O)c3ccc(Br)s3)nc12	1	-12%	-2	15%	-19%	-0.2	?
CC1CCN(C(=S)c2cccc([N+](=O)[O-])c2)CC1	-13	.	-4	-14%	45µM*	-2.2	-4%
COc1ccc(OC)c(-c2nn(-c3ccccc3)cc2C(=O)NCC(c2ccco2)N2CCCC2)c1 (stereo unspecified)	-2	-13%	-35	?	.	.	3%
COc1ccc2nc(NC(=O)c3cccc(-c4cc5ccccc5oc4=O)c3)sc2c1	-5	8.4%	-19	30%	?	2.8	7%
CCCc1c(C(=O)N/N=C/c2cccnc2)nnn1-c1nonc1N	-13	-1.0%	-10	-2%	7%	.	1%
Cc1ccc(CNC(=O)COC(=O)[C@@H]2CC(O)CN2S(=O)(=O)c2ccc3c(c2)OCCO3)cc1 (stereo partly specified)	-3	-1.6%	-11	0%	-4%	11	-1%
CC(C)C1=CC(=NS(=O)(=O)c2cccc([N+](=O)[O-])c2)C=C(C(C)C)C1=O	-3	-1.9%	20	?	16%	1.6	-1%
CCCCNc1c(C(=O)OCC)c(=O)[nH]c2ccccc12	8	-1.8%	4	?	-20%	1.0	3%
CN(C)c1ccc(C2Nc3ccccc3C(=O)N2CCN2CCNC2=O)cc1 (stereo unspecified)	29	-0.2%	-5	-3%[15.4 µM]	-19%	-1.1	-1%
Cc1c(C(=O)N(C)c2ccccc2Cl)cnn1-c1ccccc1	-12	.	-5	4%	-3%	-1.0	-4%
N#C/C(=C/c1cccc(O)c1)C(=O)NCc1ccc(Cl)cc1	-6	.	-6	4%[15.4 µM]	1%	-6.0	21%
O=[N+]([O-])CC(c1ccc(F)cc1)c1c[nH]c2ccccc12 (stereo unspecified)	-8	0.3%	-7	1%	14%	2.4	14%
Cc1csc2c(N(C)CCO)ncnc12	0	0.2%	-7	-1%[15.4 µM]	11%	-0.7	8%
CC(O)CNc1nc2ccccc2n1CC(=O)N1CCN(Cc2ccccc2)CC1 (stereo unspecified)	8	.	-4	-12%	13%	-1.3	0%
COC(=O)Cc1ccc(OC(=O)C2CCN(S(=O)(=O)c3ccc(OC)c(OC)c3)CC2)cc1	0	0.8%	1	?	.	.	-15%
CC(=O)Nc1ccc(OCc2ccc(S(=O)(=O)Cc3ccccc3)cc2)cc1	2	1.3%	-12	-38%[inhibitor]	11%	1.4	10%
CCOC(=O)c1cc(-c2ccc(/C=C3/C(=O)NC(=O)C(C#N)=C3C)o2)ccc1Cl	.	-3.3%	-10	5%	50µM*	?	-18%
O=C(CSc1nc2ccccc2[nH]1)N1CCN(c2ccccc2)CC1	3	0.2%	-19	-27%	2%	1.8	0%
CC1=C(C(=O)OCC2CCCO2)C(c2ccncc2)C2=C(CCCC2=O)N1 (stereo unspecified)	7	22µM*	9	?	16%	-0.6	8%
CCOC(=O)N1CCC(NC(=O)C2CCCN2C(=O)OCc2ccccc2)CC1 (stereo unspecified)	-19	-1.4%	-6	?	20%	-0.5	-1%
Fc1ccc(NC(=S)Nc2cc(-c3ccccc3)[nH]n2)cc1Cl	6	.	-1	3%[15.4 µM]	7%	3.3	-83%
CC(C)N1CC(C(=O)Nc2ccc(Cl)cc2Cl)CC1=O (stereo unspecified)	.	-4.0%	-14	-8%	.	.	.
CCOC(=O)C(=O)N=Nc1c(O)n(C)c2ccccc12	1	0.6%	-3	2%	-6%	0.0	-6%
COc1cc(CCCN2C(N)=NC[C@@H]2Cc2ccc(O)cc2)cc(OC)c1OC	-7	-0.7%	-10	-10%	23%	6.0	4%
CSc1ccccc1C(=O)Nc1cccc(C(C)O)c1 (stereo unspecified)	1	0.4%	-16	?	5%	3.8	6%
CCCNC(=O)COC(=O)/C(C#N)=C/c1cc(C)n(CCC)c1C	-6	.	-5	-6%[15.4 µM]	-12%	0.7	-11%
Cc1cc(C2=NNC(=NCCc3ccccc3)SC2)c(C)n1-c1c(C)n(C)n(-c2ccccc2)c1=O	5	.	-6	3%[15.4 µM]	-23%	9.4	0%
COc1ccc(-c2nnn(CC(=O)c3ccccc3)n2)cc1OC	.	0.5%	-14	10%	6%	2.8	3%
CCOC(=O)CN1C(=O)C(=O)N(Cc2c(C)cc(C)cc2C)C1=O	?	0.5%	-6	3%	3%	-4.3	9%

Record cards, from the list above. Order of screens: TRPV1 potentiator | ClpP mod | D2 PAM | gsp agonist | Sfp inh | Menin-MLL FL inh | gsp antag
CC(C)N1CC(C(=O)Nc2ccc(Cl)cc2Cl)CC1=O (stereo unspecified) in the list: . | -4.0% | -14 | -8% | . | . | .
COC(=O)Cc1ccc(OC(=O)C2CCN(S(=O)(=O)c3ccc(OC)c(OC)c3)CC2)cc1 in the list: 0 | 0.8% | 1 | ? | . | . | -15%
CC(=O)Nc1ccc(OCc2ccc(S(=O)(=O)Cc3ccccc3)cc2)cc1 in the list: 2 | 1.3% | -12 | -38%[inhibitor] | 11% | 1.4 | 10%

Additional results follow.
Compound	TRPV1 potentiator	ClpP mod	D2 PAM	gsp agonist	Sfp inh	Menin-MLL FL inh	gsp antag
CCOCCCNC(=O)Cc1ccc(F)cc1	-12	.	.	.	6%	1.5	.
CSCC[C@H](N)C(=O)N1CCC(C(=O)N[C@H](C)C(=O)Nc2ccc(C(C)C)cc2)CC1	-8	.	3	?	18%	3.8	5%
COc1ccc(C(=O)c2c[nH]c(C(=O)NCC3CCCO3)c2)cc1 (stereo unspecified)	4	0.3%	-7	-28%	5%	1.2	4%
CCOC(CNC(=O)c1ccc2nc(N3CCC(C)CC3)sc2c1)OCC	-10	-26%	1	-7%	7%	0.7	-13%
O=C(O)c1ccccc1-c1ccccc1C(=O)Nc1ccc(-c2nc3cc(Cl)ccc3o2)cc1	10	4.6%	-15	12%	7%	4.5	-22%
O=C(c1ccc(Cl)c([N+](=O)[O-])c1)N(Cc1ccco1)C1CCS(=O)(=O)C1 (stereo unspecified)	5	-1.1%	-4	13%	8%	.	-8%
CC(C)CCOc1ccc(C(=O)Nc2cc(S(=O)(=O)N3CCOCC3)ccc2N2CCOCC2)cc1	.	0.1%	-11	-108%[inhibitor]	.	.	.
CCOC(=O)N1CCN(C(=O)Cn2nc(C)n3nc(-c4ccc(OC)cc4)cc3c2=O)CC1	6	-19%	-2	1%	16%	.	0%
CCn1c(SCc2cc(=O)n3ccsc3n2)nc2ccccc21	15	.	4	2%[15.4 µM]	0%	-17	16%
O=C(CCNC(=O)c1ccc(Br)cc1)Nc1ccccc1N1CCCC1	12	-1.0%	-21	2%	.	.	1%
CCOC(=O)N1CCN(Cc2ccc(OCC(O)CN3CCCCC3)cc2)CC1 (stereo unspecified)	5	0.8%	23	-63%[inhibitor]	13%	-1.3	5%
CC(C)c1nnc(NC(=O)COc2ccc3c(c2)OCO3)s1	0	.	2	-8%	-4%	5.0	-1%
COc1ccccc1CNC(=O)c1ccc(NC2=NC3CS(=O)(=O)CC3S2)cc1 (stereo unspecified)	1	1.3%	-7	55%	7%	.	-11%
COc1ccc(CNC(=O)CN(Cc2ccccc2)S(=O)(=O)c2ccc(Cl)cc2)cc1	-6	0.1%	-9	-7%	23%	-1.7	?
COc1ccc(OC)c(NC(=O)CCN2CCC(C)CC2)c1	-1	0.3%	-15	-4%	2%	2.2	6%
CC(C)CCNC(=O)CCSCCC(=O)NCCC(C)C	9	-5.4%	-3	-27%	1%	6.3	9%
CCCNc1c(NC(=O)COc2ccc(Cl)cc2)c(=O)oc2ccccc12	12	-4.4%	-6	7%	9%	-0.6	7%
Cc1cccc(C)c1NC(=S)N(Cc1cccnc1)Cc1ccccc1Cl	29	-0.1%	-8	2%	0%	-0.9	-10%
COc1ccc(CCC(C)NCc2ccc(C(F)(F)F)cc2)cc1 (stereo unspecified)	-8	0.0%	-64	0%	-1%	0.9	2%
COc1ccc(OC)c(N2C(=O)CC(Cc3ccc(Cl)cc3)C2=O)c1 (stereo unspecified)	-3	-1.6%	-13	-32%[inhibitor]	4%	0.6	-6%
CCOC(=O)c1c(-c2ccc(F)cc2)csc1NC(=O)CCN1C(=O)c2ccccc2C1=O	-8	-0.5%	-22	0%	-2%	6.9	-5%
O=C(COC(=O)c1nc(Cl)ccc1Cl)Nc1cccc(S(=O)(=O)N2CCOCC2)c1	.	2.0%	-1	?	.	.	-7%
CC(C)(C)OC(=O)N(Cc1ccccc1)Cc1ccc(OCc2cccc(NC(=O)C3CC3)c2)cc1	.	-3.7%	-3	.	.	.	7%
CS(=O)(=O)N(CC(=O)NCCSc1ccc(Cl)cc1)c1ccc2c(c1)OCO2	-8	0.1%	-9	-20%	9%	-0.9	4%
COc1ccc(NC(=O)c2ccc(CNS(=O)(=O)c3cccc(OC)c3)cc2)cc1	-14	3.9%	2	-31%	12%	0.2	2%[15.4 µM]
NNC(=O)c1nn(-c2ccccc2)cc1O	4	.	.	.	11%	3.2	.
COC(=O)[C@@]1(Cc2ccc(F)cc2)[C@H]2c3cc(C(=O)N(C)C)n(Cc4ccc(C)c(F)c4F)c3C[C@H]2CN1C(=O)c1ccccc1	.	-0.4%	.	.	6%	5.5	.
CC(=O)N(C)c1ccc(NC(=O)c2ccc([N+](=O)[O-])cc2Cl)cc1	0	-2.8%	10	17%	6%	2.6	-5%
Nc1nnnn1N=C1CCCCC1	-12	0.8%	-33	-36%	15%	1.6	9%
O=C(N/N=C/c1ccc(N2CCOCC2)cc1)c1cccs1	-6	.	2	-2%[15.4 µM]	5%	?	-8%

Source: PubChem (National Center for Advancing Translational Sciences (NCATS))
